Sa ugtP lethal = kills S. aureus RN4220 lacking UgtP; S. aureus RN4220 ugtP deletion, OD600 growth, 16 h; some inactives read as strong as hits; growth inhibition, % (concentration not given with the values); 0.54% of 330,000 active; AID 1259309;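 active = z-score under -3 and OD600 up to 0.15 on both plates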;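 note: plate controls were untreated wells for no effect and antibiotic for full effect; wells of about 80 µL received 100 nL stock; the first replicate is given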
Mtb hypoxia inh = Mtb hypoxia fluorescent reporter inhibition; M. tuberculosis hypoxia-regulated fluorescent reporter, fluorescence; fluorescence inhibition, % (test concentration not listed); 0.1% of 300,000 active; AID 1159583;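 active = 35 to 45% if threefold the growth effect, above 45% if 1.5-fold the growth effect; inactive = the rest, general growth blockers included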;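 note: wells of about 50 µL received 100 nL stock; 0% = vehicle wells and 100% = reference inhibitor wells; whole bacteria with a GFP reporter of the hypoxia response; strong numbers were not always called active; many hits fall short of the cut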
Autofluor counter = compound fluorescence in toxin protease inhibitor counterscreen | compound autofluorescence counterscreen, microsphere flow cytometry; stronger effect = higher value | fluorescence intensity (no concentration beside the values) | 3.1% of 360,000 active | AID 624483;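 active = at least 3 SD above the mean of all compounds, about 16000 in these data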;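 note: 100 nL of 1 mM stock went into each well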
Sa RN4220 lethal = S. aureus RN4220 growth inhibition; OD600, 16 h; inhibition, % (concentration not given with the values); 0.33% of 330,000 active;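 active = z-score of -3 or lower and OD600 up to 0.18 on both plates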;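 note: plate controls were untreated cells for no effect and reference antibiotic for full effect; stock transfer was 100 nL into about 80 µL; one replicate is shown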
PrP UTR inh = suppresses PrP 5' UTR mRNA reporter expression; cell-based PrP 5' UTR mRNA reporter, plate reader; inhibition, % (test concentration not listed); 0.35% of 340,000 active; AID 488862;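 active = every replicate at 50% or more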;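 note: 0 = median of the neutral control wells; tested in H4 reporter cells; numbers are from one replicate; inactives centre near -14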
BJeLR viability = kills HRASV12-expressing BJeLR cells. BJeLR (HRASV12) viability, CellTiter-Glo ATP luminescence, 48 h; reference of the scale not given here. inhibition, % (test concentration not listed). 0.17% of 300,000 active. AID 1554;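 active = replicate mean above 50%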;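 note: 50 nL library stock added to about 25 µL; numbers are from one replicate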
Mtb hypoxia inh growth = recorded beside Mtb hypoxia inh, whose call it bears; growth inhibition, %; measured here: M. tuberculosis growth (absorbance);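 0% = vehicle and 100% = reference antibiotic; read after six days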
The depositor's hits bear a star; nt = not tested or not shown.

SMILES | Sa ugtP lethal | Mtb hypoxia inh | Mtb hypoxia inh growth | Autofluor counter | Sa RN4220 lethal | PrP UTR inh | BJeLR viability
O=C(OCc1cccc2ccccc12)C1CC(=O)N(c2ccccc2)C1 (configuration not stated) | 1 | 16 | 9 | 10627 | 4.5 | -25 | 2
O=C(NCc1ccccc1)/C(=C\c1ccc(O)cc1)NC(=O)c1ccco1 | 0 | 10 | -9 | 5240 | -0.4 | -12 | -3
COCc1cc(N2CCOCC2)nc(SCc2ccc(Cl)cc2)n1 | 10 | 5 | 7 | 4085 | 0.8 | -30 | 3
CC(C)C(=O)Nc1nnc(CCN2CCOCC2)s1 | 2 | -7 | -2 | 9764 | -1.1 | -11 | -13
COc1ccc(C(=S)N2CCOCC2)cc1OC(=O)c1ccc([N+](=O)[O-])cc1 | 10 | -10 | -10 | 4090 | 2.5 | -6 | -6
CCCC(=O)n1nc(-c2cccnc2)nc1NCc1cccs1 | 1 | 9 | 6 | 3811 | 1.1 | 6 | 7
Cc1c(NS(=O)(=O)c2ccc(N)cc2)c(=O)n(-c2ccccc2)n1C | 6 | 8 | 5 | 3147 | 5.5 | 4 | 5
O=C(Cn1nnc2ccccc21)c1cccc([N+](=O)[O-])c1 | -7 | 2 | 7 | 2460 | 2.9 | 5 | -11
O=C(O)c1cn(-c2ccc(F)cc2)c2cc(Cl)c(F)cc2c1=O | 97* | 9 | 2 | 3717 | 48 | -21 | 14
COc1ccc(CCCC(=O)Nc2ccccc2F)cc1 | 3 | 1 | 3 | 2533 | 5.2 | -42 | -14
COCCNC(=O)CSC1=N/C(=C/c2ccc(Cl)c(Cl)c2)C(=O)N1c1ccccc1F | -5 | 15 | 7 | 2034 | -4.2 | -11 | -28
Cc1ccc(S(=O)(=O)CCC(=O)NCc2ccc(Cl)cc2)cc1 | 6 | 11 | 6 | 2036 | 2.6 | -15 | 5

Three of these compounds in a different format.
Below each compound: Sa ugtP lethal, Mtb hypoxia inh, Mtb hypoxia inh growth, Autofluor counter, Sa RN4220 lethal, PrP UTR inh, BJeLR viability
COc1ccc(C(=S)N2CCOCC2)cc1OC(=O)c1ccc([N+](=O)[O-])cc1
→ 10, -10, -10, 4090, 2.5, -6, -6
CCCC(=O)n1nc(-c2cccnc2)nc1NCc1cccs1
→ 1, 9, 6, 3811, 1.1, 6, 7
Cc1c(NS(=O)(=O)c2ccc(N)cc2)c(=O)n(-c2ccccc2)n1C
→ 6, 8, 5, 3147, 5.5, 4, 5

Further entries follow:
SMILES | Sa ugtP lethal | Mtb hypoxia inh | Mtb hypoxia inh growth | Autofluor counter | Sa RN4220 lethal | PrP UTR inh | BJeLR viability
Cc1cc(C)c2c(N)c(C(=O)NN=Cc3cccs3)sc2n1 | 1 | -4 | -3 | nt | 2.3 | nt | nt
CCCCc1ccc(-c2ccc(Br)cc2O)nc1 | 10 | -2 | 7 | 8819 | 1.2 | -61 | 3
O=C(C1CCC(C(=O)N2CCCCC2)CC1)N1CCCCC1 (configuration not stated) | 3 | nt | nt | 3754 | 5.9 | -14 | -7
N#Cc1nc(-c2ccc(F)cc2)oc1NCc1cccc2c1OCO2 | -14 | 5 | 1 | 5889 | -2.7 | -18 | -9
O=C(Nc1ccccc1)c1cccc(N2CCCC2=O)c1 | -6 | 14 | 3 | 2519 | 7.4 | -10 | 4
CC1CC(C)CN(c2nc3c(c(=O)[nH]c(=O)n3C)n2CCCSc2nc3ccccc3s2)C1 (configuration not stated) | -13 | -3 | 5 | 6038 | 4.9 | -11 | nt
O=C1C2C(c3ccc(F)cc3)N3C(=O)N(c4cccc(Br)c4)C(=O)[C@@]3(Cc3ccccc3)C2C(=O)N1C1CCCCC1 (some centres not stated) | -21 | 1 | 3 | nt | 5.1 | nt | nt
CCOc1ccc(CN2CCN(Cc3cccn3-c3ncccn3)CC2CCO)cc1 (configuration not stated) | -4 | 2 | 6 | 4302 | 0.3 | -27 | 4
Cc1ccc(C)c(/C=C2\CCn3c2nc2cc(C(=O)O)ccc2c3=O)c1 | 1 | 9 | 1 | 2969 | 14 | -24 | -16
Cc1cccnc1NC1CCCCC1 | 7 | 14 | 9 | 3322 | 4.4 | -10 | 5
Cn1c(=O)n(C)c2cc(S(=O)(=O)N3CCOCC3)ccc21 | -1 | 14 | 2 | 20981* | 4.3 | -15 | -4
CCN1CCCC1CN(Cc1cc2cc(C)ccc2[nH]c1=O)C(=O)Nc1ccccc1OC (configuration not stated) | 7 | 5 | 17 | 5790 | 5.6 | -15 | 5
NC(=O)c1ccccc1NS(=O)(=O)c1ccc(F)cc1 | nt | nt | nt | 4290 | nt | -1 | 9
Cc1ccccc1NC(=O)c1cccc(C(=O)Nc2ccccc2C)n1 | -4 | 5 | -3 | 3997 | 2.4 | -23 | 5
Cc1cc(OCC(=O)NNC(=S)NCC2CCCO2)cc(C)c1Cl (configuration not stated) | -4 | 4 | -4 | 5456 | 0.5 | -26 | 5
N#CC(C(=O)OC1CCCCC1)c1nc2ccccc2nc1N1CCOCC1 (configuration not stated) | -2 | -2 | 1 | 3641 | -1.1 | -23 | -1
O=C(c1ccco1)N1CCN(C(=O)C2CC(c3ccc(Cl)cc3)=NO2)CC1 (configuration not stated) | 4 | nt | nt | 4704 | 0.4 | -14 | -4
c1ccc(Cn2c(Nn3cnnc3)nc3ccccc32)cc1 | 8 | nt | nt | 4978 | 0.1 | -30 | -4
Cc1cc(C)c(C(=O)Nc2ccc(Br)c(C(F)(F)F)c2)c(C)c1 | -35 | -6 | 7 | 2587 | 3.1 | -6 | 0
COc1nc(-c2ccccc2)c2cc(C)ccc2n1 | 13 | 8 | 5 | 3906 | 1.5 | -18 | -9
O=S(=O)(N=C(c1ccc(Cl)cc1)N1CCOCC1)c1ccccc1 | -4 | 7 | 2 | nt | 7.7 | nt | nt
COc1ccccc1C(=O)OC1CCCN(C)C1 (configuration not stated) | 15 | 4 | -1 | 3081 | 4.6 | 7 | -5
CCCOc1ccc(/C(O)=C2/C(=O)C(=O)N(CCCn3ccnc3)C2c2cccnc2)cc1 (configuration not stated) | 8 | 2 | 11 | 4455 | 3.4 | nt | -6
COc1ccccc1CNS(=O)(=O)c1ccc2c(c1)N(C(C)=O)CC(C)S2 (configuration not stated) | -3 | -2 | -3 | 6017 | 8.4 | -5 | 7

Looked up above:
CCCOc1ccc(/C(O)=C2/C(=O)C(=O)N(CCCn3ccnc3)C2c2cccnc2)cc1 (configuration not stated) @ Autofluor counter = 4455
CC(C)C(=O)Nc1nnc(CCN2CCOCC2)s1 @ Sa ugtP lethal = 2
Cc1ccc(C)c(/C=C2\CCn3c2nc2cc(C(=O)O)ccc2c3=O)c1 @ BJeLR viability = -16
COc1ccc(C(=S)N2CCOCC2)cc1OC(=O)c1ccc([N+](=O)[O-])cc1 @ BJeLR viability = -6
COCCNC(=O)CSC1=N/C(=C/c2ccc(Cl)c(Cl)c2)C(=O)N1c1ccccc1F @ Sa ugtP lethal = -5
O=C(O)c1cn(-c2ccc(F)cc2)c2cc(Cl)c(F)cc2c1=O @ PrP UTR inh = -21
CCN1CCCC1CN(Cc1cc2cc(C)ccc2[nH]c1=O)C(=O)Nc1ccccc1OC (configuration not stated) @ Sa ugtP lethal = 7

Going on with the list:
SMILES | Sa ugtP lethal | Mtb hypoxia inh | Mtb hypoxia inh growth | Autofluor counter | Sa RN4220 lethal | PrP UTR inh | BJeLR viability
COc1cccc(-c2nnc(SCC(=O)N3CCOCC3)o2)c1 | -11 | nt | nt | 4782 | 2.1 | -47 | nt
CC1(C(=O)O)C=CC2(CCCCC2)N1C(=O)c1ccccc1 (configuration not stated) | -8 | 15 | 12 | 3794 | 7.8 | -11 | 11
COc1ccc(S(=O)(=O)N2CCN(c3ccccc3OC)CC2)cc1C(=O)N1CCCCC1 | nt | nt | nt | 3800 | nt | -24 | 4
CC1CCN(CC(O)Cn2c3ccccc3c3ccccc32)CC1 (configuration not stated) | 7 | 13 | 6 | 4025 | 3.6 | -23 | -3
CC(C)C(=O)NC(=S)/C=C1/N(C)c2ccccc2C1(C)C | 1 | -13 | 2 | 7433 | 4.2 | -50 | -10
COc1ccc(N2CCN(c3ncnc4c3nnn4Cc3ccccc3Cl)CC2)cc1 | 4 | 3 | 2 | 2488 | 1.1 | -23 | 11
COc1ccc(S(=O)(=O)Nc2c(C(=O)O)[nH]c3ccc(OC)cc23)c(OC)c1 | 5 | 7 | 4 | 5771 | 9.0 | -15 | 2
CCCCn1c(N)c(N(CCOC)C(=O)c2ccc(S(=O)(=O)N3CCC(C)CC3)cc2)c(=O)[nH]c1=O | 8 | -2 | 9 | nt | 3.5 | -17 | -6
CN(N)C(=S)Nc1ccc(F)cc1 | 0 | 0 | 8 | 3501 | 5.5 | 3 | -4
C=CCNC(=O)C1CC(=O)N(c2ccc(OCC(=O)NCc3ccccc3)cc2)C1 (configuration not stated) | 4 | nt | nt | 2148 | 2.6 | -4 | 3
CCn1cc(C(=O)N[C@@H](C)C(=O)NCCCN2CCOCC2)c(=O)c2cc3c(cc21)OCO3 | 2 | 0 | -7 | 4218 | 3.7 | -1 | 2
Cc1nn(-c2ccc(N3CCOCC3)nn2)c(C)c1CCC(=O)NCc1ccccc1F | 2 | 1 | -2 | 5682 | -2.5 | -12 | 6
O=C(Nc1ccc(O)cc1)/C(=C/c1ccco1)NC(=O)c1ccccc1 | 9 | 2 | 7 | 4383 | 4.5 | -36 | -5
CCOC(=O)C1CCN(C(=O)Nc2cc(Cl)cc(Cl)c2)CC1 | -29 | 2 | -5 | 3293 | 1.6 | -12 | 3
CC(=O)CC(c1ccccc1)S(=O)(=O)c1ccc([N+](=O)[O-])cc1 (configuration not stated) | 8 | 5 | 0 | 6152 | 2.2 | -29 | 1
O=C(NC(=O)c1cnccc1C(F)(F)F)Nc1ccccc1 | -6 | 13 | 2 | 6219 | 1.0 | -31 | -7
Cc1cc(C)n(-c2ccc(Cl)c(C(=O)O)c2)n1 | -7 | 2 | 10 | 3687 | 2.5 | -19 | -6
CN(C)c1ccc(C=NNC2=NS(=O)(=O)c3ccccc32)cc1 | 2 | 4 | -4 | nt | 2.0 | nt | nt
COc1cc(Nc2cc(C)nc3ncnn23)cc(OC)c1 | 1 | -1 | -7 | 7009 | 11 | -5 | -5
CCCCCCCOC(=O)c1nc(Cl)c(Cl)c(N)c1Cl | -26 | 0 | 16 | 1982 | -6.8 | -8 | 0
Cc1ccc(NC(=O)c2cc(N3C(=O)CCC3=O)ccc2N2CCCCC2)cc1 | 2 | 0 | 1 | 5648 | 1.4 | -21 | 8
CCNC(=O)/C(C#N)=C/c1c(N2CCN(c3ccccc3)CC2)nc2ccccn2c1=O | 7 | 2 | 2 | 3739 | 3.1 | -24 | 13
CC(=NNC(=O)C1CC1(c1ccccc1)c1ccccc1)c1cccs1 (configuration not stated) | 17 | 5 | -6 | nt | -1.6 | nt | nt
CC(=NOCON=C(C)c1ccccc1F)c1ccccc1F | 10 | 11 | 8 | nt | 2.0 | nt | nt
O=C(NC1CCCCC1)C1CCC(=O)N(C2CC2)C1 (configuration not stated) | 6 | 15 | 1 | 6649 | 2.0 | -25 | -8
O=C(O)c1cc(-c2ccc(O)cc2)on1 | 8 | 9 | 4 | 2206 | 4.8 | -27 | 0
COc1cccc(OC)c1C(=O)N1CCOCC1 | 4 | 4 | -2 | 22982* | 1.0 | -6 | -5
CCCN(CC(=O)Nc1ccccc1OC)Cc1c(O)ccc2ccccc12 | 11 | -4 | 10 | 3679 | 1.3 | -25 | -19
CCOc1ccc(C(=O)Nc2ccc(N3CCN(C)CC3)cc2)cc1[N+](=O)[O-] | 71 | 0 | 14 | 4492 | 5.2 | -34 | 0
O/N=C/c1nc2cc(Cl)ccc2o1 | nt | nt | nt | 4218 | nt | -18 | 2
Nc1ccccc1Nc1nc2ccccc2[nH]1 | -6 | -2 | 0 | 4257 | -5.3 | -16 | -9

Of the compounds above, these contain a CF3 group:
SMILES | Sa ugtP lethal | Mtb hypoxia inh | Mtb hypoxia inh growth | Autofluor counter | Sa RN4220 lethal | PrP UTR inh | BJeLR viability
Cc1cc(C)c(C(=O)Nc2ccc(Br)c(C(F)(F)F)c2)c(C)c1 | -35 | -6 | 7 | 2587 | 3.1 | -6 | 0
O=C(NC(=O)c1cnccc1C(F)(F)F)Nc1ccccc1 | -6 | 13 | 2 | 6219 | 1.0 | -31 | -7

Bioassay records from PubChem.
